Arbovirus inh: antivirals against arbovirus infection, primary screen, cell-based, full library, 10K replicate subset | AID 1251, 2008 | inhibition, % at 10 µM | arbovirus infection cell-based antiviral screen | 200,000 tested, 0.37% active;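 active = inhibition from about 30%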;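 note: bluetongue infection of BSR cells; cell survival read as ATP light after 72 h; 0% = infected wells without compound and 100% = uninfected wells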
Mtb bLac sens: beta-lactam sensitization of Mtb H37Rv, H37Rv; 330,000 tested, 0.27% active; inhibition, % at 25 µM; M. tuberculosis H37Rv growth with meropenem, percent inhibition; hits of this screen are not shown here;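 active = about 74% or more and at least 40 points above the plate without the antibiotic, then above 30% in a dose series; inconclusive = first-round hits that could not be retested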;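 note: growth measured after seven days incubation then overnight dye step; 0% = bacteria only wells and 100% = bacteria with antibiotic; twin plates without the antibiotic show which effects depend on it; some results filed as inactive read as strong as hits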
Mtb growth: M. tuberculosis H37Rv growth inhibitors, H37Rv strain (AID 1626); inhibition, % at 10 µM; hits with a dose series show IC50 in µM; 220,000 tested, 0.95% active; M. tuberculosis H37Rv growth inhibition; higher % means a stronger effect;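 active = confirmed in a dose series; inconclusive = inhibition above 80% but not taken into the dose series; inactive = below 80% or under 30% at every dose of the series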;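 note: bacteria incubated seven days before Alamar blue readout; 0% = bacteria only wells and 100% = bacteria with antibiotic wells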
YopH inh: YopH tyrosine phosphatase inhibitors, primary screen, biochemical, fluorescence Ex485/Em525. YopH tyrosine phosphatase [Yersinia enterocolitica]. 140,000 tested, 0.16% active. inhibition, %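 (about 10 µM by stock and volumes)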;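 active = inhibition of 50% or more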;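 note: controls were vehicle for no effect and minimum signal wells for full effect; inactives centre near -20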
RecA splice inh: Mtb RecA intein splicing inhibitors, primary screen, biochemical, fluorescence, HTS; cell-free RecA intein splicing; inhibition, %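 (about 9 µM by stock and volumes)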; Protein RecA (Mycobacterium tuberculosis (strain ATCC 25618 / H37Rv)), P9WHJ3; 290,000 tested, 0.75% active; in the data active = inhibition above about 30%; inconclusive = no clear call, values can overlap the other calls;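 note: 0% = vehicle wells and 100% = reference inhibitor control wells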
Target sequence (P9WHJ3 whole entry, looked up, canonical isoform): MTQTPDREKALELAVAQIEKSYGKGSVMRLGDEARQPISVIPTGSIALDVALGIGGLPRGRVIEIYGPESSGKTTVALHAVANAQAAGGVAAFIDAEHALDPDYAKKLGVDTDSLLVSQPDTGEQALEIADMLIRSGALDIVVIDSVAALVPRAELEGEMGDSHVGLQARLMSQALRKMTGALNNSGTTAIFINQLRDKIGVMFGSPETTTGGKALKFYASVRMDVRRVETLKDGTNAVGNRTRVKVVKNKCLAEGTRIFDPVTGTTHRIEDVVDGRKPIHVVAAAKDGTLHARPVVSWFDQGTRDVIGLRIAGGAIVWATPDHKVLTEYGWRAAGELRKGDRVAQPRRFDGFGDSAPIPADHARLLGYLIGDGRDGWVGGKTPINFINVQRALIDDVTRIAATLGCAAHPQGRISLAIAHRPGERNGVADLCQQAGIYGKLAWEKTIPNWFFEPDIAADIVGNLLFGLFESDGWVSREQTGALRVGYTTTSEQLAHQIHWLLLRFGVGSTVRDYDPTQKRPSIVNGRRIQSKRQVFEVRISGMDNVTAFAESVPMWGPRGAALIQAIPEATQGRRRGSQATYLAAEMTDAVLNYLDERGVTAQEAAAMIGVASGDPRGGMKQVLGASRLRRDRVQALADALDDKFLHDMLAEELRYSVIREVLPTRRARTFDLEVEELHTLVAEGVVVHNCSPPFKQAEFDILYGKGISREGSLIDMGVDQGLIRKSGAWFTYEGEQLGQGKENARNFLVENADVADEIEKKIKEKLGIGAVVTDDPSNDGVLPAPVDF
Arbovirus inh repeat: recorded beside Arbovirus inh, whose call it bears; inhibition, %; measured here: 10K subset replicate screen; many hits read low in the repeat;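 first of two repeat runs on a subset; 0% = infected and 100% = uninfected wells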
Numbers without * were called inactive; ? = inconclusive; . = no result given.

SMILES | Arbovirus inh | Mtb bLac sens | Mtb growth | YopH inh | RecA splice inh | others
O=C(CSc1ccc2nnc(-c3cccnc3)n2n1)NCC1CCCO1 (stereo not drawn) | 4 | -2 | 4% | -29 | -2.2
COC(=O)c1sccc1NC(=S)N(C)C1CCCCC1 | -3 | 2 | -4% | . | 6.7
COc1ccccc1/C=C/c1nc2ccc(OC(C)=O)cc2c(=O)o1 | . | 67 | . | . | -7.3
CC1(C)CC(=O)C2=C(C1)NC(=O)CC2c1cc2c(cc1Br)OCO2 (stereo not drawn) | -4 | -1 | -5% | -21 | -2.1
O=C(CSc1nnc(CNC(=O)c2ccccc2F)o1)NC1CCCCC1 | . | -8 | . | . | -5.9
COC(=O)c1ccc(COc2ccc(C3C4=C(CCCC4=O)Nc4onc(C)c43)cc2)cc1 (stereo not drawn) | 6 | 23 | -8% | -68 | 1.5
CCCCNC(=S)N(C)/N=C/c1ccccc1C(=O)O | 10 | 6 | -5% | -10 | 0.0
Cc1ccc(NC(=O)CN(C)C(=O)c2cccc(S(=O)(=O)NCc3ccccc3)c2)cc1 | . | -8 | . | . | -1.4
CC(C)(C)OC(=O)NOCC(=O)N(Cc1ccccc1)CC(O)COc1ccccc1 (stereo not drawn) | . | -7 | . | . | 0.8
C=CCc1ccc(OC)c(OC)c1 | . | -1 | . | . | 0.0
O=C(c1cccc(C(F)(F)F)c1)N1C[C@H]2C[C@@H](C1)c1cccc(=O)n1C2 | . | -3 | . | . | -1.0
Cc1cccc(-n2nc3c(c2NC(=O)c2c(F)cccc2F)CS(=O)(=O)C3)c1C | . | 8 | . | . | 0.1
CNCCC(=O)N1c2ccccc2CCc2ccc(NC(=O)OC)cc21 | . | 7 | . | . | 2.0
COC(=O)c1c(F)c(F)c(N2CCOCC2)c(F)c1F | 4 | 0 | -7% | -33 | 0.0
COc1ccc(C(=O)NCCS(=O)(=O)NCc2ccco2)cc1 | . | -16 | . | . | 2.8
CNC(=O)N(C)c1ccc(C(O)(C(=O)OC)C(F)(F)F)cc1 (stereo not drawn) | . | 3 | -1% | . | -1.4
O=C(O)c1ccccc1NC(=S)NC(=O)c1cccc2ccccc12 | 9 | -1 | -2% | . | 3.6
COc1ccc(OC2CCN(S(=O)(=O)c3ccc(F)cc3)CC2)cc1 | . | ? | . | . | 3.6
c1ccc2nc3c(cc2c1)CCCCC3 | . | -4 | -15% | . | -0.6
O=[N+]([O-])c1ccc(S(=O)(=O)Nc2nc(-c3ccccc3)cs2)cc1 | . | -10 | . | . | 3.8

In the list so far, these contain fluorine.
SMILES | Arbovirus inh | Mtb bLac sens | Mtb growth | YopH inh | RecA splice inh | others
O=C(CSc1nnc(CNC(=O)c2ccccc2F)o1)NC1CCCCC1 | . | -8 | . | . | -5.9
O=C(c1cccc(C(F)(F)F)c1)N1C[C@H]2C[C@@H](C1)c1cccc(=O)n1C2 | . | -3 | . | . | -1.0
Cc1cccc(-n2nc3c(c2NC(=O)c2c(F)cccc2F)CS(=O)(=O)C3)c1C | . | 8 | . | . | 0.1
COC(=O)c1c(F)c(F)c(N2CCOCC2)c(F)c1F | 4 | 0 | -7% | -33 | 0.0
CNC(=O)N(C)c1ccc(C(O)(C(=O)OC)C(F)(F)F)cc1 (stereo not drawn) | . | 3 | -1% | . | -1.4
COc1ccc(OC2CCN(S(=O)(=O)c3ccc(F)cc3)CC2)cc1 | . | ? | . | . | 3.6

The list goes on.
SMILES | Arbovirus inh | Mtb bLac sens | Mtb growth | YopH inh | RecA splice inh | others
CCN(CC)Cc1c(CC(C)C)oc(C)c1C(=O)O | 5 | . | 11% | -18 | -3.5
Cc1cc(NC(=O)NC(=O)c2ccccc2)no1 | . | -15 | . | . | -3.8
COc1ccc2nc(-c3ccccn3)[nH]c2c1 | . | 3 | . | . | 3.9
Cc1nc2ccccc2nc1SCC(=O)N1CCC(C)CC1 | 1 | -4 | -7% | -3 | 0.8
Cc1ccccc1NC(=O)NC1CCCCCCC1 | . | -4 | . | . | 3.5
C[C@H](NS(=O)(=O)c1ccc(Cl)cc1)C(=O)OCC(=O)NC(=O)Nc1ccc2c(c1)OCCO2 | -2 | 71 | 77% | -14 | 1.6
COc1ccc(Cl)cc1NC(=O)Cc1c(F)cccc1Cl | -3 | 9 | 7% | -28 | 2.5
Fc1ccc(-c2cc(-c3ccccc3)nc(-n3cccn3)n2)cc1 | -9 | 55 | 17% | . | 8.2
Cc1cccc(-n2c(SCC(=O)NCc3ccc4c(c3)OCO4)nc3ccccc3c2=O)c1 | -7 | 12 | 4% | -10 | 3.3
COC(=O)c1ccc(COc2ccc(/C=N/NC(N)=S)cc2)o1 | . | 89 | 66% | . | .

Overlap with the part before: four compounds, followed by the next part.
SMILES | Arbovirus inh | Mtb bLac sens | Mtb growth | YopH inh | RecA splice inh | others
COc1ccc(Cl)cc1NC(=O)Cc1c(F)cccc1Cl | -3 | 9 | 7% | -28 | 2.5
Fc1ccc(-c2cc(-c3ccccc3)nc(-n3cccn3)n2)cc1 | -9 | 55 | 17% | . | 8.2
Cc1cccc(-n2c(SCC(=O)NCc3ccc4c(c3)OCO4)nc3ccccc3c2=O)c1 | -7 | 12 | 4% | -10 | 3.3
COC(=O)c1ccc(COc2ccc(/C=N/NC(N)=S)cc2)o1 | . | 89 | 66% | . | .
CC1CN(C)C(C)c2c1oc1ccc(N)cc21 (stereo not drawn) | 0 | -4 | 3% | . | 2.9
CN1/C(=C\C=N\NC(=O)c2ccccc2Br)C(C)(C)c2ccccc21 | -6 | 28 | ? | -1 | 6.2
CCC(=O)c1ccc(N2CCCCC2)c(F)c1 | -9 | 5 | -1% | . | .
CCCCCCC(=O)Nc1nc(C)c(-c2csc(Nc3ccccc3OC)n2)s1 | -15 | 99 | 5.5µM* | -33 | 1.7
CC(C)OP(=O)(Oc1ccc(C(O)C(Cl)(Cl)Cl)cc1)OC(C)C (stereo not drawn) | . | -9 | -6% | . | 1.4
COc1cc(S(=O)(=O)Nc2ccc(C)cc2)ccc1N=Cc1c(C)[nH]n(-c2ccccc2)c1=O | -1 | 7 | 12% | -12 | -2.2
CCOc1ccc(CN(C)C(=O)CNC(=O)C2CCCCC2)cc1OC | . | -2 | . | . | -0.4
CCN(Cc1ccncc1)C(=O)CC1C(=O)NCCN1Cc1ccc(F)c(F)c1 (stereo not drawn) | 12 | -4 | 2% | . | -0.6
Cc1ccc2c(c1)nnn2C1CCN(S(=O)(=O)c2ccc(C(=O)N(C)C3CCCCC3)cc2)CC1 | 3 | 0 | 5% | -40 | 16
COc1ccc(-c2c(C(C)=O)c(C)nc3sc4c(c23)NC(c2ccccc2)NC4=O)cc1 (stereo not drawn) | -3 | -7 | -12% | -6 | -21

An excerpt of the results above:
SMILES | Arbovirus inh | Mtb bLac sens | Mtb growth | YopH inh | RecA splice inh | others
CCOc1ccc(CN(C)C(=O)CNC(=O)C2CCCCC2)cc1OC | . | -2 | . | . | -0.4
CCN(Cc1ccncc1)C(=O)CC1C(=O)NCCN1Cc1ccc(F)c(F)c1 (stereo not drawn) | 12 | -4 | 2% | . | -0.6
Cc1ccc2c(c1)nnn2C1CCN(S(=O)(=O)c2ccc(C(=O)N(C)C3CCCCC3)cc2)CC1 | 3 | 0 | 5% | -40 | 16
COc1ccc(-c2c(C(C)=O)c(C)nc3sc4c(c23)NC(c2ccccc2)NC4=O)cc1 (stereo not drawn) | -3 | -7 | -12% | -6 | -21

Later entries
SMILES | Arbovirus inh | Mtb bLac sens | Mtb growth | YopH inh | RecA splice inh | others
Cc1ccc(C(=O)NCC(=O)OCc2c(F)cccc2Cl)cc1 | . | -1 | . | . | -0.4
Cn1c(=O)n(C)c2cc(NC(=O)c3ccccc3[N+](=O)[O-])c(Br)cc21 | 0 | 5 | 6% | . | -0.4
N#Cc1ccccc1NC(=O)COc1c(Br)cc(Br)c2cccnc12 | -7 | -2 | 0% | -7 | 2.7
COCC(C)NCc1cccc2ccccc12 (stereo not drawn) | 5 | -6 | -6% | . | -4.4
COc1ccccc1NC(=O)Nc1cccc(NC(C)=O)c1 | . | -3 | -3% | . | -3.1
O=C(NC1CCSc2ccccc21)c1ccc([N+](=O)[O-])cc1 (stereo not drawn) | . | 4 | . | . | -3.1
O=C(O)C(c1ccccc1)N1C(=O)/C(=C/c2cccs2)SC1=S (stereo not drawn) | . | -5 | -20% | . | 16
Cc1ccc(C(=O)CN2C(=O)c3ccccc3S2(=O)=O)cc1 | . | -2 | 1% | . | 0.1
COc1nc2ccccc2nc1N1CCN(C)CC1 | . | 2 | . | . | -1.6
C[N+](C)(C)c1ccc(/C=N/Nc2nc(Cl)c(C#N)c(Cl)c2Cl)cc1 | 5 | 63 | 4% | -23 | 4.3
O=[N+]([O-])c1ccc(NCCNc2ccc(Cl)nn2)cc1 | 2 | 1 | -4% | -16 | .
CC(=O)Nc1ccc(C2Nc3ccccc3C(=O)N2C2CCCCC2)cc1 (stereo not drawn) | 6 | -2 | -4% | -31 | 1.3 | Arbovirus inh repeat=3
O=C(c1ccco1)n1c(=S)nc2ccccn21 | -5 | -2 | -6% | -4 | 1.0
COc1cccc(CN2CCN(C3CCN(c4ccccc4C)CC3)CC2CCO)c1 (stereo not drawn) | -6 | -4 | -2% | . | 0.4
CC1(C)CC(=O)C(C(=S)Nc2ccccc2)=C(NC2CC(C)(C)NC(C)(C)C2)C1 | -14 | 3 | 4% | . | -0.4
Cc1[nH]nc(Nc2ccc(C(C)C)cc2)c1[N+](=O)[O-] | . | 5 | 1% | . | -0.3
CCOc1ccc(S(=O)(=O)N(CC(=O)NN=C2CCN(C)CC2)c2ccc(C)cc2)cc1 | . | 3 | . | . | 0.1
O=C(NCC1CCCO1)C1CCCN(c2ncccn2)C1 (stereo not drawn) | -7 | -6 | -4% | -30 | 0.4
CC1CCCCC1NC(=O)CSc1nnc(N)s1 (stereo not drawn) | 6 | -5 | -3% | -16 | -3.3
CC(C)(C)c1ccc(/C=N/Nc2ccc(C(=O)O)cc2)cc1 | 6 | 5 | 5% | -14 | 8.7

Quoted at random: 2 entries already listed, in no set order.
SMILES | Arbovirus inh | Mtb bLac sens | Mtb growth | YopH inh | RecA splice inh | others
Cc1[nH]nc(Nc2ccc(C(C)C)cc2)c1[N+](=O)[O-] | . | 5 | 1% | . | -0.3
O=[N+]([O-])c1ccc(NCCNc2ccc(Cl)nn2)cc1 | 2 | 1 | -4% | -16 | .

(more compounds)
SMILES | Arbovirus inh | Mtb bLac sens | Mtb growth | YopH inh | RecA splice inh | others
Cc1cc(/C=C2\C(=O)NC(=O)N(C)C2=O)c(C)n1-c1ccc2c(c1)OCO2 | 3 | -4 | -7% | -23 | -0.7
O=C(CCN1C(=O)COc2ccccc21)N1CCCCC1 | -3 | -7 | -3% | -10 | 1.4
COc1cc([N+](=O)[O-])ccc1NC(=O)CC1SC(=Nc2ccc(F)cc2)N(CCC2=CCCCC2)C1=O (stereo not drawn) | 48* | 11 | 14% | -19 | 1.3
O=C(Nc1ccc(F)cc1)N(Cc1nnc2n1CCCCC2)c1ccccc1 | 3 | -5 | -18% | -28 | -0.7
COc1ccc2nc(N(CCN(C)C)C(=O)c3ccc4c(c3)OCCO4)sc2c1 | . | -11 | . | . | 1.3
O=P(CCl)(Nc1ccccc1)C(Cl)(Cl)Cl (stereo not drawn) | 0 | -5 | -1% | . | -1.4
CN1CCN(Cc2cc(Cl)c3cccnc3c2OC(=O)c2cccs2)CC1 | -16 | -1 | 4% | -12 | -6.0
CC(=O)c1ccc(NC(=O)Cn2cnc(S(=O)(=O)N3CCOCC3)c2)cc1 | . | 6 | . | . | -0.8
CCOCCCNCc1ccc(OCC(=O)N2CCOCC2)c(OC)c1 | 6 | 1 | 2% | . | -0.8
COc1ccc(CN2C[C@H](C)[C@@H](CC(=O)NCc3ccccc3)C2=O)cc1 | . | -5 | . | . | -2.6
O=C1CCC(=O)N1OCCOc1ccccc1 | 2 | 4 | 0% | . | -0.8
CC1CCCC(NC(=O)CSc2nnc(N)s2)C1C (stereo not drawn) | -1 | -9 | -5% | -26 | 0.4
O=C(Nc1cccc(-c2cccc(F)c2)c1)C1CCN(Cc2ccco2)CC1 | . | 5 | . | . | -0.6
Cc1ccc(NC(=S)N2CCN(c3ncccn3)CC2)cc1C | 12 | 1 | -2% | -17 | 4.0
O=C(CN1C(=O)NC2(CCCC2)C1=O)Nc1ccccc1C(F)(F)F | . | -9 | . | . | -3.0
COc1ccc(C2C(C(=O)OCC3CCCO3)=C(C)NC3=C2C(=O)CC(c2ccco2)C3)cc1O (stereo not drawn) | 1 | -9 | -3% | 2 | 1.6

High-throughput results: PubChem BioAssay, several laboratories

A portion of the library, so the mix of outcomes need not match the whole.
